FGF22 binding: binders of recombinant human FGF22 by thermal shift; 340,000 tested, 1.5% active; calls only at 9.99 µM; Q9HCT0; SYPRO orange fluorescence; percent of sucrose octasulfate shift, DMSO zero;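 active = melting point raised past a set limit in the mean and every replicate; inconclusive = no clear call; three in four hits are not shown here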
Target sequence (Q9HCT0 whole entry, looked up): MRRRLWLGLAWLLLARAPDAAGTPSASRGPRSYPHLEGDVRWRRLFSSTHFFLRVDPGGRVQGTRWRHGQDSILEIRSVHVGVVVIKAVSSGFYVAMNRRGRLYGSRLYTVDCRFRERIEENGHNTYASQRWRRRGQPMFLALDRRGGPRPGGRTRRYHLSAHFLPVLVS
UCH37 inh: inhibitors of human deubiquitinating enzyme UCH37; Q9Y5K5; purified proteasome/UCH37, Ub-AMC cleavage fluorescence; inhibition, % (no concentration beside the values); 330,000 tested, 0.33% active;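 active = mean of two replicates above 20%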;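 note: 0% = compound-free wells with enzyme and 100% = wells lacking proteasome; stock transfer was 100 nL into about 20 µL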
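Material: Human UCH37 enzyme supplied as purified proteasome complex | Schedule: 30 min preincubation with enzyme, 25 min cleavage at room temperature | Detection: AMC fluorescence 355/460 nm | Measure: % inhibition of Ub-AMC cleavage fluorescence | Controls: Wells without proteasome as full block, compound-free enzyme plus substrate as uninhibited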
E coli growth: inhibitors of Escherichia coli growth. AID 1053175. 330,000 tested, 0.21% active. OD600 absorbance (test concentration not listed). OD600, 23 h; active compounds read low;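 active = OD600 absorbance below the run mean of sample wells minus 3.6 SD, in any replicate, cut at about 0.56 in these data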;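 note: stock transfer was 300 nL into about 60 µL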
AF4-AF9 inh: MLL-AF4/AF9 protein interaction inhibition; P42568; AlphaScreen, biotin-AF4 peptide binding to FLAG-AF9; inhibition, % at 10 µM; 350,000 tested, 0.47% active; AID 651704;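 active = every replicate reaching a set inhibition limit, whatever the replicate mean, cut at about 25% in these data; inconclusive = mean inhibition reaches that limit but some replicates miss it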;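 note: 0% = plate neutral control median and 100% = total signal loss; the record names both 10 and 1 µM as test concentration; the first replicate is given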
Target sequence (P42568 whole entry, looked up): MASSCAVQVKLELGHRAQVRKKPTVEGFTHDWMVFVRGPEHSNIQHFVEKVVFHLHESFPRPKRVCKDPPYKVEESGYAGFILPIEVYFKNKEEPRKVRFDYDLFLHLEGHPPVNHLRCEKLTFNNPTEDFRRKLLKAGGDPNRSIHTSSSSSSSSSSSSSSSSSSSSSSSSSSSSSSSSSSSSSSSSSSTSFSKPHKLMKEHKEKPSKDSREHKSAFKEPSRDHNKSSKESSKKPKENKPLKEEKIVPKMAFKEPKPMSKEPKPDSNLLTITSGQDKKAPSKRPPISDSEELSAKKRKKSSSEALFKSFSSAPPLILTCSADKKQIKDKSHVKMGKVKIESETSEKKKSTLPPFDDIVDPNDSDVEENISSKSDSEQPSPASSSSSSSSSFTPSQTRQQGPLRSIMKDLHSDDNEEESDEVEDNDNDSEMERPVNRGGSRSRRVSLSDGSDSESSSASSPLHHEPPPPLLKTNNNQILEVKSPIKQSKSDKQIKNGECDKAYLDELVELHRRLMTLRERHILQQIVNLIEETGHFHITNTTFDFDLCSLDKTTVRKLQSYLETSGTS
Vif A3G: HIV-1 Vif–A3G interaction blockers – biochemical, TR-FRET, GST-Vif 1-94, biotin-A3G peptide, dose response retest, primary screen (AID 1117319). TR-FRET GST-Vif / biotin-A3G peptide binding; higher % means a stronger effect; test concentration not given here; strong numbers were not always called active. one-dose inhibition, %; IC50 in µM for titrated hits. 260,000 tested, 0.57% active;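 active = above the screen mean plus three standard deviations and confirmed in dose response; inconclusive = results disagree or hit not tested in dose response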;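 note: Vif residues 1-94 fused to GST binding biotinylated APOBEC3G peptide 110-148; 0% = full assay without inhibitor and 100% = GST in place of GST-Vif; retest series ran down from 100 µM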
RanGTP-Impb inh: inhibitors of RanGTP-importin-beta interaction, primary screen, biochemical, FRET, CFP-Ran, YFP-importin-beta, homogeneous. AID 2216. inhibition, % (no concentration beside the values). cell-free CFP-Ran/YFP-importin-beta FRET ratio. 300,000 tested, 1.1% active;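 active = most replicates above 15%; inconclusive = exactly half above 15%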;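 note: 0% = DMSO wells and 100% = Ran loaded with GDP instead of GTP; wells of about 40 µL received 100 nL stock; the first replicate is given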
HNF4A DNA FP: change in binding of human HNF4 alpha to DNA. P41235. HNF4a-FITC DNA binding, fluorescence polarization, 1 h. activity change, % at 10 µM. 360,000 tested, 0.3% active. AID 1224865; in the data active = activity change above about 30%, passing the limit was not always enough;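 note: controls were the assay level and a saturating level of protein; the project sought stronger binding though the title names inhibitors; some compounds called inactive have numbers as strong as hits; positive values seem to mean higher polarization but the record does not say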
Active calls of the source: *; i = inactive; ? = inconclusive; . = no result given; & = joins results of further samples.

UCH37 inh | AF4-AF9 inh | Vif A3G | E coli growth | HNF4A DNA FP | RanGTP-Impb inh | FGF22 binding | molecule
2.2 | 0.4 | -4% | 0.65 | -2.6 | 3.9 | i | CCOC(=O)C1=C(COC(=O)/C=C/c2cc(Br)ccc2F)NC(=O)NC1C (stereo not drawn)
0.4 | -0.4 | -11% | 0.65 | -9.1 | -0.4 | i | Cc1nc(N)nc(COc2ccccc2)n1
3.0 | -0.7 | 21% | 0.69 | -1.5 | -2.7 | i | CC(=O)c1ccc(NC(=O)CN2CCOCC2)cc1
-1.9 | -4.0 | 1% | 0.68 | 0.2 | -3.3 | i | COc1ccccc1CN1CC(C(=O)NCc2cccc(Cl)c2)CCC1=O (stereo not drawn)
-3.1 | -9.9 | -9% | 0.61 | -1.8 | 5.7 | i | CCCCn1c(N)c(N(CC(C)C)C(=O)CN2C(=O)C3CCCCC3C2=O)c(=O)[nH]c1=O (stereo not drawn)
-0.1 | -1.2 | . | 0.72 | -3.6 | 1.0 | i | CCOC(=O)C1(CC2CC2)CCN(C(=O)c2cccnc2C)CC1
1.0 | -0.1 | . | 0.63 | 3.1 | 0.5 | i | CN(C)C(CNC(=O)c1ccc(S(=O)(=O)Nc2ccccc2F)cc1)c1ccccc1 (stereo not drawn)
. | . | -11% | . | -2.3 | ? | . | CC(C)Cn1cnc2c(c(-c3ccccc3)c(-c3ccccc3)n2Cc2ccco2)c1=N
9.7 | 84* | ? | 0.6 | 2.3 | 1.6 | i | CC(C)Nc1ccc(Nc2ccnc3cc4ccccc4cc23)cc1
4.6 | -2.0 | 2% | 0.73 | -1.3 | -0.6 | i | O=C(O)C1CCCN(S(=O)(=O)c2ccc(Cl)s2)C1 (stereo not drawn)
-4.7 | . | -5% | 0.7 | 1.2 | 4.5 | . | Cc1c(Br)c(C(F)(F)F)nn1CC(=O)NCCN1CCOCC1
. | 1.7 | . | . | -4.0 | . | i | CCOc1cc(OCC)cc(C(=O)N2CCC[C@H]2C(=O)N2CCC[C@H]2C(=O)N(C)Cc2ccccc2)c1
. | -0.5&0.2 | . | . | -10 | . | i | C[C@H](CO)N1C[C@H](C)[C@H](CN(C)C(=O)Nc2ccc(C(F)(F)F)cc2)Oc2ncc(Br)cc2C1=O
3.3 | -0.2 | -16% | 0.71 | 4.3 | 0.6 | . | COc1cc(C(=O)OCC(=O)NCC2CCCCC2)ccc1OCC(C)C
4.1 | 0.1 | 9% | 0.65 | 0.4 | . | i | O=C(CCNS(=O)(=O)c1ccccc1C(F)(F)F)Nc1ccncc1
6.4 | . | 8% | 0.68 | 0.9 | 1.3 | . | Cc1ccc(C(=O)c2cc(C)sc2NC(=O)CN2CCN(C(=O)c3ccco3)CC2)cc1
0.9 | -1.3 | . | 0.65 | 3.9 | 1.8 | i | CC1Sc2ccc(S(=O)(=O)CCC(=O)NCc3ccc(Cl)cc3)cc2NC1=O (stereo not drawn)
6.2 | -1.5 | 12% | 0.72 | -0.4 | ? | i | COc1ccc(C2c3ccc(O)cc3Oc3ncn4nc(-c5ccccn5)nc4c32)cc1 (stereo not drawn)
3.2 | -6.5 | 0% | 0.71 | 2.6 | 1.1 | i | Cc1ncc([N+](=O)[O-])n1Cc1ccc(Cl)cc1
1.7 | -0.7 | -9% | 0.74 | -1.2 | -1.4 | i | CCCCOC(=O)c1ccc(NC(=O)COC(=O)CN2C(=O)NC3(CCCC3)C2=O)cc1
-1.2 | . | -2% | . | 191 | -4.1 | . | COc1ccc(/C=C/c2nc3sc4c(c3c(=O)o2)CCC4)cc1
. | 3.9 | . | . | -3.2 | 2.9 | i | O=C(N/N=C/c1ccccc1)c1ccc(-c2ccccc2)cc1
1.5 | -0.6 | . | 0.71 | 2.3 | 5.2 | i | Cc1cccc(NC(=O)CSc2nnc(NC(=O)C3CCC3)s2)c1
. | -0.6 | -2% | . | 4.2 | . | i | O=C(Nc1ccc(Cc2ccc(NC(=O)Nc3cccnc3)cc2)cc1)Nc1cccnc1
5.6 | 0.1 | -8% | 0.67 | 1.2 | -0.5 | i | Nc1c(-c2ccc(Cl)cc2)cnn1-c1ccccc1
1.2 | . | 18% | 0.61 | 0.6 | -0.7 | . | CCOC(=O)C1=C(CN2CCOCC2)NC(=O)NC1c1cc(C)ccc1C (stereo not drawn)
4.0 | -4.0 | -15% | 0.69 | 13 | 3.8 | i | CC(C)OC(=O)NCCOC(=O)Nc1ccccc1Cl
-0.6 | 3.8 | -2% | 0.65 | -0.3 | -2.4 | i | COc1ccc2c(c1)c(C(=O)CN1CCN(Cc3ccccc3)CC1)c(C)n2C
4.6 | . | 1% | 0.69 | 0.4 | -1.1 | . | CCOc1ccc(/C=C/C(=O)NCCc2ccc(OC)c(OC)c2)cc1
-9.5 | -0.5 | 0% | 0.67 | -5.5 | 153* | i | CCCN1CCc2c(sc(NC(=O)CCS(=O)(=O)c3ccccc3)c2C(N)=O)C1

Part of the list above in order of molecular weight, lowest first:
UCH37 inh | AF4-AF9 inh | Vif A3G | E coli growth | HNF4A DNA FP | RanGTP-Impb inh | FGF22 binding | molecule
0.4 | -0.4 | -11% | 0.65 | -9.1 | -0.4 | i | Cc1nc(N)nc(COc2ccccc2)n1
3.2 | -6.5 | 0% | 0.71 | 2.6 | 1.1 | i | Cc1ncc([N+](=O)[O-])n1Cc1ccc(Cl)cc1
3.0 | -0.7 | 21% | 0.69 | -1.5 | -2.7 | i | CC(=O)c1ccc(NC(=O)CN2CCOCC2)cc1
4.6 | -2.0 | 2% | 0.73 | -1.3 | -0.6 | i | O=C(O)C1CCCN(S(=O)(=O)c2ccc(Cl)s2)C1 (stereo not drawn)
1.2 | . | 18% | 0.61 | 0.6 | -0.7 | . | CCOC(=O)C1=C(CN2CCOCC2)NC(=O)NC1c1cc(C)ccc1C (stereo not drawn)
3.3 | -0.2 | -16% | 0.71 | 4.3 | 0.6 | . | COc1cc(C(=O)OCC(=O)NCC2CCCCC2)ccc1OCC(C)C
-0.6 | 3.8 | -2% | 0.65 | -0.3 | -2.4 | i | COc1ccc2c(c1)c(C(=O)CN1CCN(Cc3ccccc3)CC1)c(C)n2C
-4.7 | . | -5% | 0.7 | 1.2 | 4.5 | . | Cc1c(Br)c(C(F)(F)F)nn1CC(=O)NCCN1CCOCC1
-9.5 | -0.5 | 0% | 0.67 | -5.5 | 153* | i | CCCN1CCc2c(sc(NC(=O)CCS(=O)(=O)c3ccccc3)c2C(N)=O)C1
. | -0.6 | -2% | . | 4.2 | . | i | O=C(Nc1ccc(Cc2ccc(NC(=O)Nc3cccnc3)cc2)cc1)Nc1cccnc1
0.9 | -1.3 | . | 0.65 | 3.9 | 1.8 | i | CC1Sc2ccc(S(=O)(=O)CCC(=O)NCc3ccc(Cl)cc3)cc2NC1=O (stereo not drawn)
2.2 | 0.4 | -4% | 0.65 | -2.6 | 3.9 | i | CCOC(=O)C1=C(COC(=O)/C=C/c2cc(Br)ccc2F)NC(=O)NC1C (stereo not drawn)
1.0 | -0.1 | . | 0.63 | 3.1 | 0.5 | i | CN(C)C(CNC(=O)c1ccc(S(=O)(=O)Nc2ccccc2F)cc1)c1ccccc1 (stereo not drawn)
1.7 | -0.7 | -9% | 0.74 | -1.2 | -1.4 | i | CCCCOC(=O)c1ccc(NC(=O)COC(=O)CN2C(=O)NC3(CCCC3)C2=O)cc1
-3.1 | -9.9 | -9% | 0.61 | -1.8 | 5.7 | i | CCCCn1c(N)c(N(CC(C)C)C(=O)CN2C(=O)C3CCCCC3C2=O)c(=O)[nH]c1=O (stereo not drawn)
6.4 | . | 8% | 0.68 | 0.9 | 1.3 | . | Cc1ccc(C(=O)c2cc(C)sc2NC(=O)CN2CCN(C(=O)c3ccco3)CC2)cc1
. | 1.7 | . | . | -4.0 | . | i | CCOc1cc(OCC)cc(C(=O)N2CCC[C@H]2C(=O)N2CCC[C@H]2C(=O)N(C)Cc2ccccc2)c1
. | -0.5&0.2 | . | . | -10 | . | i | C[C@H](CO)N1C[C@H](C)[C@H](CN(C)C(=O)Nc2ccc(C(F)(F)F)cc2)Oc2ncc(Br)cc2C1=O

Additional structures:
UCH37 inh | AF4-AF9 inh | Vif A3G | E coli growth | HNF4A DNA FP | RanGTP-Impb inh | FGF22 binding | molecule
7.6 | . | 2% | 0.7 | 2.4 | -4.1 | . | CCCOc1ccc(Cn2c(C)nc([N+](=O)[O-])c2SCC(O)COC)cc1[N+](=O)[O-] (stereo not drawn)
3.5 | . | 27% | 0.75 | -1.8 | . | . | CCCCOc1ccc(C2(C(=O)O)CCCC2)cc1
1.0 | -4.1 | . | 0.65 | 1.6 | -0.7 | i | CCOc1ccc(NC(=O)Cn2cc(C(=O)C3CC3)c3ccccc32)cc1
0.8 | 0.3 | . | 0.72 | -2.9 | 0.9 | . | COc1cccc(CN(C)C(=O)c2ccc(OCC(=O)Nc3cccc(C(F)(F)F)c3)c(OC)c2)c1
i | 0.6 | -13% | 0.63 | -0.5 | 0.7 | i | CCCCN(C)CCNC(=O)c1cc2cc3ccc(OC)cc3nc2o1
2.5 | . | 1% | 0.73 | 3.0 | -0.1 | . | Cc1cc2nc(C)n(CCCN)c2cc1C
1.7 | . | 22% | 0.68 | 2.1 | 4.7 | . | CCCn1c(SCc2ccon2)nc2ccccc2c1=O
2.9 | 0.4 | 0% | 0.61 | 0.8 | . | i | O=C(CCCN1C(=O)NC2(CCCC2)C1=O)Nc1cccc(S(=O)(=O)N2CCOCC2)c1

Assay outcomes (PubChem BioAssay)

Some of the compounds tested (hit frequency here may not be typical).
